Sa ugtP lethal: kills S. aureus RN4220 lacking UgtP; 330,000 tested, 0.54% active; S. aureus RN4220 ugtP deletion, OD600 growth, 16 h; some inactives read as strong as hits; growth inhibition, % (no concentration beside the values);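 active = z-score under -3 and OD600 up to 0.15 on both plates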;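 note: plate controls were untreated wells for no effect and antibiotic for full effect; wells of about 80 µL received 100 nL stock; the first replicate is given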
RN4220 kill: S. aureus RN4220 growth inhibition. inhibition, % (concentration not given with the values). OD600, 16 h. 330,000 tested, 0.33% active;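 active = z-score of -3 or lower and OD600 up to 0.18 on both plates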;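 note: plate controls were untreated cells for no effect and reference antibiotic for full effect; stock transfer was 100 nL into about 80 µL; one replicate is shown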
Autofluor counter: compound fluorescence in toxin protease inhibitor counterscreen; compound autofluorescence counterscreen, microsphere flow cytometry; active compounds read high; fluorescence intensity (no concentration beside the values); 360,000 tested, 3.1% active;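 active = at least 3 SD above the mean of all compounds, about 16000 in these data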;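 note: 100 nL of 1 mM stock went into each well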
Mtb hypoxia rep: reduces hypoxia-regulated biosensor signal in M. tuberculosis. AID 1159583. M. tuberculosis hypoxia-regulated fluorescent reporter, fluorescence. 300,000 tested, 0.1% active. fluorescence inhibition, % (no concentration beside the values);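 active = 35 to 45% if threefold the growth effect, above 45% if 1.5-fold the growth effect; inactive = the rest, general growth blockers included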;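 note: wells of about 50 µL received 100 nL stock; 0% = vehicle wells and 100% = reference inhibitor wells; whole bacteria with a GFP reporter of the hypoxia response; strong numbers were not always called active; many hits fall short of the cut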
BJeLR lethal: BJeLR cell viability loss. inhibition, % (concentration not given with the values). BJeLR (HRASV12) viability, CellTiter-Glo ATP luminescence, 48 h; reference of the scale not given here. 300,000 tested, 0.17% active;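 active = replicate mean above 50%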;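 note: 50 nL library stock added to about 25 µL; numbers are from one replicate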
PrP 5UTR inh: suppresses PrP 5' UTR mRNA reporter expression; cell-based PrP 5' UTR mRNA reporter, plate reader; inhibition, % (test concentration not listed); 340,000 tested, 0.35% active; AID 488862;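 active = every replicate at 50% or more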;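 note: 0 = median of the neutral control wells; tested in H4 reporter cells; numbers are from one replicate; inactives centre near -14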
Mtb hypoxia rep growth: recorded beside Mtb hypoxia rep, whose call it bears; growth inhibition, %; measured here: M. tuberculosis growth (absorbance);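 0% = vehicle and 100% = reference antibiotic; read after six days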
Active calls of the source: *; . = no result given.

SMILES	Sa ugtP lethal	RN4220 kill	Autofluor counter	Mtb hypoxia rep	Mtb hypoxia rep growth	BJeLR lethal	PrP 5UTR inh
CCC1CCCCN1Cc1c(O)ccc2c(=O)c(-c3ccccc3)coc12 (configuration not stated)	11	1.5	3437	13	6	-8	-19
O=C(COC(=O)/C=C/c1ccc(Cl)c(Cl)c1)NC1CCS(=O)(=O)C1 (configuration not stated)	-9	9.0	7986	2	-5	.	-21
Cc1ccccc1NC(=O)COC(=O)CCc1ccccc1	7	-1.3	2555	-5	-2	-12	-27
O=C1C2CC=CCC2C(=O)N1c1ccc(N2CCN(c3ccccn3)CC2)c([N+](=O)[O-])c1 (configuration not stated)	2	3.1	5306	3	1	-16	-19
CCCCn1c(SCC(=O)Nc2nnc(C)s2)nnc1-c1ccoc1C	2	8.5	4724	.	.	-8	13
CC/C(Cc1ccccc1)=N\NC(=O)c1cc([N+](=O)[O-])cc([N+](=O)[O-])c1	.	.	2596	.	.	4	-21
CC(C)(C)c1ccccc1NC(=O)c1cc(-c2ccncc2)nc2ccccc12	2	1.8	3275	2	-1	.	-27
CC(=O)c1c(C)[nH]c(C(=O)OCC(=O)Nc2cccc(S(=O)(=O)N(C)C)c2)c1C	2	5.8	4649	1	4	8	-26
CCOc1cc(C(=O)Nc2c(C)ccc3nsnc23)cc(OCC)c1OCC	-1	2.8	4019	-11	-2	-6	-4
CC1CN(C(=S)Nc2cccc(F)c2)CC(C)O1 (configuration not stated)	6	3.5	3874	6	2	-11	-14
Fc1ccccc1N1CCN(Cc2nc(-c3ccc(Cl)cc3Cl)no2)CC1	-1	-0.2	4532	0	7	.	-10
CC1=C(C(=O)N2CCOCC2)C(c2ccc(-c3ccccc3)cc2)NC(=S)N1 (configuration not stated)	6	3.6	5372	16	12	-10	-17
CC(=O)c1ccc(NC(=O)C(C)Sc2nnc3ccccn23)cc1 (configuration not stated)	2	-1.0	3754	-7	2	.	-15
Cc1onc(-c2ccccc2Cl)c1C(=O)N(C)Cc1ccccc1	-5	0.2	4566	-4	-10	-3	-30
Cc1ccc(-c2nn(C)c(=O)c3ccccc23)cc1S(=O)(=O)NCCN1CCOCC1	-1	-14	2943	5	4	-1	-16
Cc1ccc(C(C)C)c(OCC(=O)Nn2c(=O)[nH]c3ccccc3c2=O)c1	-17	-5.4	1945	-8	-6	1	-31
C/C(=N\NC(=O)c1nnn(-c2nonc2N)c1CN1CCCCC1)c1ccccc1O	.	.	5630	.	.	3	-8
O=C(Cn1nc(C(F)(F)F)c2c1CCCC2)Nc1ccc2c(c1)OCO2	-6	0.1	21133*	5	3	-9	-6
CS(=O)(=O)N(CC(=O)N1CCN(Cc2ccccc2)CC1)c1ccccc1Br	3	3.2	3370	-12	-10	-11	-37
COCCNC(=O)c1ccccc1NC(=O)c1ccccc1N(C)S(=O)(=O)c1ccc(C)cc1	3	-2.1	3654	.	.	-3	2
Cc1ccc(N2C(=O)[C@@H]3[C@H](C2=O)C2c4ccccc4C=NN2[C@@H]3C(=O)c2ccc(Cl)cc2)cc1 (some centres not stated)	8	-1.0	2585	-3	-5	9	4
COP(=O)(OC)C(Nc1ccc(Cl)cc1)c1ccccc1 (configuration not stated)	4	4.0	4072	9	8	1	-40
CC(C)OCCCNS(=O)(=O)c1ccc2c(c1)oc(=O)n2C	2	-1.4	5787	7	7	10	-10
COc1ccc(/C=C(\NC(=O)c2ccc(OC)cc2)C(=O)Nc2ccccc2C(=O)O)cc1	0	7.0	3808	-3	10	0	-39
COc1ccc(N/C(C)=C/C(=O)c2ccccc2)cc1	1	8.8	1927	9	10	2	-63
CCOc1ccc(C2=NNC(c3cccs3)=Nc3ccc(OC)cc32)cc1	1	-2.3	4099	2	3	-11	-32
C=CCC1(N(C(C)=O)c2ccccc2)CCCCC1	3	2.6	2749	4	3	1	-29
O=C(C1CCCN(S(=O)(=O)c2cccs2)C1)N1CCc2ccccc2C1 (configuration not stated)	-8	-2.2	4136	.	.	3	3
CC(C)(C)NC(=O)C(=O)NN=Cc1cccs1	8	6.4	.	2	-2	.	.
Cc1nc(SCC(=O)NC(C)(C#N)C2CC2)c2c(-c3cccs3)csc2n1 (configuration not stated)	-1	0.9	2364	2	7	8	-14
COc1cccc(CNC(=O)CN(C)S(=O)(=O)c2ccc(Br)s2)c1	0	3.1	3678	7	11	-8	-13
Cc1ccc(C(=O)OCC(=O)NC2CC2)s1	5	0.6	3466	3	2	.	-23
COc1ccc(N2CCN(C(=O)CNC(=O)c3ccc(Br)o3)CC2)cc1	1	-1.6	5320	12	6	-2	-5
COCCNc1ccnc2c(Cl)cccc12	-3	5.4	2226	11	-2	1	-23
O=[N+]([O-])c1ccc(-c2nc(NCC3CCCO3)c3ccccc3n2)cc1 (configuration not stated)	-19	-5.7	5577	4	6	-12	-5
COc1ccc(CC(=O)N/N=C/c2cc(Br)cs2)cc1OC	.	.	3804	.	.	-3	-6
Cc1nn(-c2ccccc2)c(Cl)c1C(=O)N(C)CC(=O)Nc1cccc(F)c1	1	-1.9	5085	5	-1	5	-19
CCc1ccc(CN(C)CC(=O)Nc2ccc3c(c2)CCC3)cc1	-5	7.1	2255	10	4	-4	-11
Cc1nn(CCc2nn[nH]n2)c2nc(C(F)(F)F)cc(C(F)(F)F)c12	-2	-8.7	3336	24	-12	8	-44
O=C(C1CCN(S(=O)(=O)c2cccc3nsnc23)CC1)N1CCc2ccccc21	-5	-2.3	5063	.	.	-4	-4

Compound profiles, as listed above. Order of values: Sa ugtP lethal, RN4220 kill, Autofluor counter, Mtb hypoxia rep, Mtb hypoxia rep growth, BJeLR lethal, PrP 5UTR inh
`CC(=O)c1ccc(NC(=O)C(C)Sc2nnc3ccccn23)cc1` (configuration not stated) across the screens: 2, -1.0, 3754, -7, 2, ., -15
`CS(=O)(=O)N(CC(=O)N1CCN(Cc2ccccc2)CC1)c1ccccc1Br` across the screens: 3, 3.2, 3370, -12, -10, -11, -37
`COc1cccc(CNC(=O)CN(C)S(=O)(=O)c2ccc(Br)s2)c1` across the screens: 0, 3.1, 3678, 7, 11, -8, -13
`COc1ccc(N2CCN(C(=O)CNC(=O)c3ccc(Br)o3)CC2)cc1` across the screens: 1, -1.6, 5320, 12, 6, -2, -5

Going on with the list:
SMILES	Sa ugtP lethal	RN4220 kill	Autofluor counter	Mtb hypoxia rep	Mtb hypoxia rep growth	BJeLR lethal	PrP 5UTR inh
NS(=O)(=O)c1ccc(CCNC(=O)c2ccccc2Cc2ccccc2)cc1	7	2.5	7319	0	-2	1	-9
COc1ccc2c(c1)-c1nc(/N=C/c3c(O)ccc4ccccc34)sc1CC2	.	.	2097	.	.	-2	-19
CCN(CC(=O)Nc1c(F)cccc1F)C(=O)CNC(=O)c1ccc(Br)o1	3	1.6	6190	-2	11	5	-17
Cc1c(C(=O)CN2CCCC(C)(C)C2)c2ccccc2n1C	4	3.0	5581	14	10	0	-11
COc1ccc(CCC(=O)NCc2ccco2)cc1	-3	0.4	3395	-1	7	4	4
CN(c1ccccc1C(=O)N1CCN(c2ccccc2F)CC1)S(=O)(=O)c1ccccc1	10	5.2	6078	5	-7	-3	0
N#Cc1ccc(-c2ccc(F)cc2)nc1Sc1ccccc1	-6	0.6	8947	-5	-3	-8	-55
Cc1nc2cc(NC(=O)N3CCC(c4ccccc4)C3)ccc2n1C (configuration not stated)	5	0.7	10812	11	1	-1	-8
CCCc1cc(C(=O)N2CCCC(Nc3ccc(C)c(C)c3)C2)n(C)n1 (configuration not stated)	5	0.7	.	1	-4	-2	-22
C/C(=N\OCC(=O)Nc1c(C)cc(C)cc1C)c1ccc2c(c1)OCCO2	.	.	2520	.	.	-1	-13
Cc1cc(C)cc(NC(=O)N2CCc3ccccc3C2)c1	1	-1.1	5360	-4	4	1	-46
COc1cccc(-c2nnc(-c3ccco3)o2)c1	-12	13	9372	21	13	0	-114
CCc1cc(C(=O)Cc2ccccn2)c(O)cc1O	12	1.7	2729	7	1	-4	-17
c1ccc(-c2nn3nnnc3c3ccccc23)cc1	-6	-10	3450	6	9	-3	-15
CCOc1ccc(/C=C/C(=O)Nc2ccc(C(N)=O)cc2)cc1OC	1	1.4	2642	7	-2	-2	-17
O=S(=O)(c1ccc(Oc2ccccc2)cc1)N1CCOCC1	12	3.7	8232	12	0	4	.
CCOC(=O)c1ccc(NC(=O)C2CC3CCC2C3)cc1 (configuration not stated)	-9	1.2	3505	8	10	-2	.
COc1ccc(S(=O)(=O)Nc2cc(C)c(O)cc2C(C)C)cc1	5	7.9	4344	1	1	6	-22
O=c1[nH]c(=O)n(Cc2ccco2)c2c1C(C(F)(F)F)(C(F)(F)F)N=C(Cc1ccccc1)N2	-9	2.8	5551	-1	12	5	-15
CCCCn1c(N)c(N(CC)C(=O)COc2ccc(C#N)cc2)c(=O)[nH]c1=O	2	4.2	4574	12	7	.	-5
COc1ccccc1-c1cc(C(=O)NC(C)c2ccccc2)no1 (configuration not stated)	2	2.2	11537	11	7	6	-14
Cc1ccc(OCc2cc(C(=O)N3CCc4sccc4C3)no2)cc1C	5	-0.3	6176	6	-2	-5	-6
CCC(=NNc1ccc([N+](=O)[O-])cc1[N+](=O)[O-])c1ccc(O)cc1	-5	4.4	.	19	10	.	.
CCCCn1c(N)c(N(CCOC)C(=O)CN2c3ccccc3CC2C)c(=O)[nH]c1=O (configuration not stated)	-10	-1.8	4910	-3	-2	-2	-17
CCOC(=O)c1sc(NC(=O)c2c(C)nn(Cc3ccccc3)c2C)cc1C	-8	-8.4	4627	.	.	.	-24
COc1ccc(CNCC(=O)Nc2cc(OC)cc(OC)c2)cc1	-1	1.4	2915	5	-5	-12	-10
CCOC(=O)C1=C(CS(=O)(=O)c2ccc(C)cc2)NC(=O)NC1c1cc(OC)c(OC)c(OC)c1 (configuration not stated)	2	0.9	5478	-1	-1	-10	-28
Cc1ccc(S(=O)(=O)N2CCOC23CCN(C(=O)c2ccc(Cl)cc2Cl)CC3)cc1	-17	-2.2	.	-2	8	3	-17
O=C(COC(=O)c1cc(=O)[nH]c2ccccc12)NC1CCCC1	9	7.3	4349	14	9	-2	-16

Random excerpt: 4 entries already listed.
SMILES	Sa ugtP lethal	RN4220 kill	Autofluor counter	Mtb hypoxia rep	Mtb hypoxia rep growth	BJeLR lethal	PrP 5UTR inh
CCOC(=O)C1=C(CS(=O)(=O)c2ccc(C)cc2)NC(=O)NC1c1cc(OC)c(OC)c(OC)c1 (configuration not stated)	2	0.9	5478	-1	-1	-10	-28
COc1ccccc1-c1cc(C(=O)NC(C)c2ccccc2)no1 (configuration not stated)	2	2.2	11537	11	7	6	-14
Cc1ccc(S(=O)(=O)N2CCOC23CCN(C(=O)c2ccc(Cl)cc2Cl)CC3)cc1	-17	-2.2	.	-2	8	3	-17
CCC(=NNc1ccc([N+](=O)[O-])cc1[N+](=O)[O-])c1ccc(O)cc1	-5	4.4	.	19	10	.	.

Assay outcomes deposited in PubChem by several laboratories.
